Six1-Eya2 blk = qHTS Assay for Inhibitors of the Six1/Eya2 Interaction. 0.56% of 360,000 active. activity change, % (no concentration beside the values). Homeobox protein SIX1 (Homo sapiens) + Protein phosphatase EYA2 (Homo sapiens), …. AlphaScreen GST-Six1/His-Eya2 binding, biochemical; hits give low values; control for the full effect not named in the record. AID 651725, 2012; in the data active = activity change below about -65%; inconclusive = about -30% to -65%; inactive = above about -30%; also: % is scaled to controls: 0 for no effect and ±100 for the full control effect; compound concentration not given in the record
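Six1/Eya2 binding was read as AlphaScreen signal after compounds were pinned into GST-Six1 plus His-tagged Eya2 (5X stock 250/500 nM) in pH 8.0 Tris/NaCl/TCEP buffer, beads added, then incubated 1 h, 37 C, dark.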
CtBP-E1A inh = qHTS Assay for Inhibitors of the CtBP/E1A Interaction | CtBP / adenovirus E1A interaction (AlphaScreen) | AlphaScreen GST-E1A/His-CtBP binding, 1536-well; hits give low values; control for the full effect not named in the record | activity change, % (test concentration not listed) | 0.49% of 340,000 active; in the data active means activity change below about -65%; inconclusive means about -30% to -65%; inactive means above about -30%; also: % is scaled to controls: 0 for no effect and ±100 for the full control effect; compound concentration not given in the record
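Homogeneous bead-based format: GST-tagged E1A captured on glutathione donor beads, His-tagged CtBP on nickel acceptor beads; compounds precede bead addition by 2 h at 37 °C.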
TRPML1 agonist = qHTS for Agonists of the Human Mucolipin Transient Receptor Potential 1 (TRPML1); Mucolipin-1 (Homo sapiens), Q9GZU1; TRPML1-expressing cells, Ca2+ dye fluorescence, FDSS; host cell line not named in the record; reference of the full effect not given here; activation, % (no concentration beside the values); 0.12% of 410,000 active; AID 624414, 2012; in the data active = activation above about 50%; inconclusive = about 30% to 50%; inactive = below about 30%; also: 0% is about no effect; the text of the record puts the active cut at 80%
Target sequence (Q9GZU1 whole entry, looked up): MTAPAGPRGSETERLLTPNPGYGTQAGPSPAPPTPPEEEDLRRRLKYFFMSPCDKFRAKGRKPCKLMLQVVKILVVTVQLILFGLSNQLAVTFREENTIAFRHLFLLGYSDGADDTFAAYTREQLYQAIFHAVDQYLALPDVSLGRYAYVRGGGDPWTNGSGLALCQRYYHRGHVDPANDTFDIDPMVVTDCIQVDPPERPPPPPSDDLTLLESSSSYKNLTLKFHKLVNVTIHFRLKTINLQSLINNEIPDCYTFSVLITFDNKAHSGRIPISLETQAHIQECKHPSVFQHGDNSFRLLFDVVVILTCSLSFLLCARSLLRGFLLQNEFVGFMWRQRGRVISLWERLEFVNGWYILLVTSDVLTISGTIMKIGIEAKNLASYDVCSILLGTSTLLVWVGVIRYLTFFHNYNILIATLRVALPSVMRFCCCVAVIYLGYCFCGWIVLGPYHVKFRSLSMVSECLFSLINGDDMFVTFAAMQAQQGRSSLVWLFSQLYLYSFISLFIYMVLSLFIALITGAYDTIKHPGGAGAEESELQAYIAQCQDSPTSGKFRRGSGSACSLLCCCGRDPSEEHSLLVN
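Calcium fluorescence on an FDSS kinetic reader gave the read-out. Tet-induced TRPML1-DL cells were plated overnight, dye-loaded (Ca8 with quencher, 45-90 min, room temperature, dark), then read 110 s after compound addition, and again 110 s after 4uM final 54-4 (EC80).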
D2 PAM = Beta-Arrestin HTS for Positive Allosteric Modulators of the Human D2 Dopamine Receptor: Potentiators | AID 624464, 2012 | potentiation, % (concentration not given with the values) | 0.23% of 360,000 active | D(2) dopamine receptor (Homo sapiens), P14416 | DiscoveRx D2 beta-arrestin cells, luminescence, 90 min; 100% = 57 uM dopamine signal; active = potentiation of 50% or more; inconclusive = 30% to 50%; inactive = 30% or less;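 also: compound concentration not given in the record; tested on top of an EC20 dose of dopamine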
Target sequence (P14416 whole entry, looked up): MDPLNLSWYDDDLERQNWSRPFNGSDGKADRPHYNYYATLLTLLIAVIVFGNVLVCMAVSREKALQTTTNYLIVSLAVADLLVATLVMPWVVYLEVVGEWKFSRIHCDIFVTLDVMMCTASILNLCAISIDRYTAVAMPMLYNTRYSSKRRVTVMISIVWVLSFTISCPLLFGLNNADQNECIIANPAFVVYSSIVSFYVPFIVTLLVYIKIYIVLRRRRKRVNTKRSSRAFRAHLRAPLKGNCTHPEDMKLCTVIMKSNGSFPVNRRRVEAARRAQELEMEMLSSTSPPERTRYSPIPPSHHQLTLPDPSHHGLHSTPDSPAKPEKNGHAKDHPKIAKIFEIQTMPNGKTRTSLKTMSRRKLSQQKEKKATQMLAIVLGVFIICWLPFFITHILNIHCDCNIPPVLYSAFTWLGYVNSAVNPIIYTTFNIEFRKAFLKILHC
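PathHunter D2 cells, attached overnight at 37 deg C, received compound in DMSO plus dopamine at EC20 (50 nM final) for 90 min at 37 deg C. Beta-arrestin recruitment was read as luminescence after 1 h with detection reagent at ambient temperature.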
TRPML1 blocker = qHTS for Inhibitors of the Human Mucolipin Transient Receptor Potential 1 (TRPML1). Mucolipin-1 (Homo sapiens), Q9GZU1. TRPML1-inducible cells, Ca2+ dye fluorescence, FDSS; hits give low values; inhibition of EC80 agonist-evoked calcium signal. activity change, negative = inhibition, % (no concentration beside the values). 0.02% of 390,000 active. AID 624415, 2012; in the data active means activity change below about -50%; inconclusive means about -30% to -50%; inactive means above about -30%;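 also: stimulus is agonist 54-4 at its EC80 concentration; % is scaled to controls: 0 for no effect and ±100 for the full control effect; compound concentration not given in the record; the text of the record puts the active cut at -80%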
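TRPML1-DL cells, Tet-induced overnight (~16 h, 37 °C) at 1,500 cells/well, were loaded with Ca8 no-wash dye plus quencher for 45-90 min at room temperature. Compounds were pinned during FDSS kinetic reading; agonist 54-4 at EC80 (4 uM final) then added.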
TRPV1 potentiator = HTS Assay for Compounds that Act as Potentiators of the Vanilloid Receptor 1 | 0.02% of 320,000 active | AID 540277, 2011 | Transient receptor potential cation channel subfamily V member 1 (Homo sapiens), Q8NER1 | TRPV1-expressing cells, Fluo-8 calcium influx, capsaicin EC20 potentiation; host cell line not named in the record; control for the full effect not named in the record | potentiation, % at 8.33 µM; active means potentiation above 80%; inconclusive means 30% to 80%; inactive means below 30%; also: 0% is about no effect
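Cells expressing TRPV1 were dye-loaded with Fluo-8 and read kinetically: 10 s baseline, 3 min after compound (agonist portion), then 2 min after EC20 capsaicin (allosteric enhancer portion). Calcium-bound dye fluorescence at 480/520 nm.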
An asterisk follows results filed as active; ? = inconclusive; . = not tested or not shown.

SMILES	Six1-Eya2 blk	CtBP-E1A inh	TRPML1 agonist	D2 PAM	TRPML1 blocker	TRPV1 potentiator
Cc1cc(C)cc(Cn2cc(CN3CC(N4CCCCC4)CS3(=O)=O)nn2)c1 (stereo not given)	-7.8	2.3	-0.3	.	.	.
COc1ccc(C(=O)NCC(=O)OCC(=O)NC23CC4CC(CC(C4)C2)C3)cc1	9.2	5.7	-0.2	-4.2	-5.1	.
C[C@H]1CCCCO[C@@H](CN(C)C(=O)NC2CCCCC2)[C@@H](C)CN([C@@H](C)CO)C(=O)c2cc(NC(=O)Cc3ccccc3)ccc2O1	9.0	-4.3	1.4	-10.0	-9.2	.
CCCNC(=O)Nc1nc(CC(=O)OCC)cs1	1.4	.	-0.6	-1.5	-3.5	5.3
CCC(=O)c1cn(/C(=C\C(=O)OC(C)(C)C)CCC(OC)OC)cc1CC	0.5	5.3	-0.3	-22.8	13.1	-12.2
O=C(Cc1ccccc1)Nc1sc2c(c1C(=O)Nc1ccc(Br)cc1)CCCC2	.	.	1.8	.	31.3	-2.0
O=C1CN(c2ccccc2)C(=S)N1C(=O)c1ccccc1	-1.4	11.3	-0.6	-1.8	-8.0	1.4
CCN(CC(=O)Nc1ccc(OC)cc1)C(=O)Cc1ccc(OC)c(S(=O)(=O)N2CCOCC2)c1	-4.7	.	-1.4	-6.5	-1.6	?
COc1ccc(CNc2nc(-c3cccnc3)nn2C(=O)CC(C)C)cc1	11.7	-22.7	1.9	-30.2	2.5	23.1
Oc1ccccc1Oc1ncc(Br)c(Cl)n1	2.1	-2.2	.	-4.6	.	-8.5
CN(C)N1C(N)=C(C#N)C(c2cccc3ccccc23)C2=C1CC(c1ccccc1)CC2=O (stereo not given)	-15.6	-0.7	-0.4	-20.6	-7.5	25.3
COC(=O)N1C(=O)[C@](c2ccsc2)(C(C)C)N1C(=O)OC	-2.3	2.4	0.5	-4.8	12.3	16.3
COc1cccc(/C=C/C(=O)c2cccc([N+](=O)[O-])c2)c1	-2.7	-4.7	2.2	6.0	2.4	-13.7
CCCCC(CC)C(=O)Oc1ccc(O)c(C(C)(C)C)c1 (stereo not given)	5.1	0.0	0.2	-1.4	-1.3	-13.9
CCOC(=O)Oc1ccc2oc(=O)cc(C)c2c1	-3.0	2.0	-0.2	-8.9	-13.1	14.9
COc1ccc2c(c1OC)C(=O)OC2Nn1cncn1 (stereo not given)	4.0	3.8	-0.7	-3.7	3.4	10.6
Cc1cc([N+](=O)[O-])ccc1NC(=O)CN1C2CCC1CC(NC(=O)NC13CC4CC(CC(C4)C1)C3)C2 (stereo not given)	0.1	-8.4	0.8	-8.8	-8.3	-1.3
Cc1ccccc1C(=O)N1CCC(C(=O)Nc2ccc3c(c2)OCO3)CC1	6.6	.	0.4	-6.0	-9.3	10.6
O=C(Cc1ccc(-n2cccc2)cc1)N1CCc2ccccc21	5.5	-1.3	1.5	-2.2	8.3	-0.6
CCN1CCN(CC(=O)c2cc(OC)c(OC)c(OC)c2)CC1	-0.6	11.1	-0.2	-5.3	-1.0	3.2

Given with values under each structure: 12 of the compounds above.
Every second line gives: Six1-Eya2 blk, CtBP-E1A inh, TRPML1 agonist, D2 PAM, TRPML1 blocker, TRPV1 potentiator
COc1ccc(CNc2nc(-c3cccnc3)nn2C(=O)CC(C)C)cc1
  11.7, -22.7, 1.9, -30.2, 2.5, 23.1
Oc1ccccc1Oc1ncc(Br)c(Cl)n1
  2.1, -2.2, ., -4.6, ., -8.5
CN(C)N1C(N)=C(C#N)C(c2cccc3ccccc23)C2=C1CC(c1ccccc1)CC2=O (stereo not given)
  -15.6, -0.7, -0.4, -20.6, -7.5, 25.3
COC(=O)N1C(=O)[C@](c2ccsc2)(C(C)C)N1C(=O)OC
  -2.3, 2.4, 0.5, -4.8, 12.3, 16.3
COc1cccc(/C=C/C(=O)c2cccc([N+](=O)[O-])c2)c1
  -2.7, -4.7, 2.2, 6.0, 2.4, -13.7
CCCCC(CC)C(=O)Oc1ccc(O)c(C(C)(C)C)c1 (stereo not given)
  5.1, 0.0, 0.2, -1.4, -1.3, -13.9
CCOC(=O)Oc1ccc2oc(=O)cc(C)c2c1
  -3.0, 2.0, -0.2, -8.9, -13.1, 14.9
COc1ccc2c(c1OC)C(=O)OC2Nn1cncn1 (stereo not given)
  4.0, 3.8, -0.7, -3.7, 3.4, 10.6
Cc1cc([N+](=O)[O-])ccc1NC(=O)CN1C2CCC1CC(NC(=O)NC13CC4CC(CC(C4)C1)C3)C2 (stereo not given)
  0.1, -8.4, 0.8, -8.8, -8.3, -1.3
Cc1ccccc1C(=O)N1CCC(C(=O)Nc2ccc3c(c2)OCO3)CC1
  6.6, ., 0.4, -6.0, -9.3, 10.6
O=C(Cc1ccc(-n2cccc2)cc1)N1CCc2ccccc21
  5.5, -1.3, 1.5, -2.2, 8.3, -0.6
CCN1CCN(CC(=O)c2cc(OC)c(OC)c(OC)c2)CC1
  -0.6, 11.1, -0.2, -5.3, -1.0, 3.2

Reformatted: 2 of the compounds above
CN(C)N1C(N)=C(C#N)C(c2cccc3ccccc23)C2=C1CC(c1ccccc1)CC2=O (stereo not given)
  Six1-Eya2 blk = -15.6; CtBP-E1A inh = -0.7; TRPML1 agonist = -0.4; D2 PAM = -20.6; TRPML1 blocker = -7.5; TRPV1 potentiator = 25.3
COC(=O)N1C(=O)[C@](c2ccsc2)(C(C)C)N1C(=O)OC
  Six1-Eya2 blk = -2.3; CtBP-E1A inh = 2.4; TRPML1 agonist = 0.5; D2 PAM = -4.8; TRPML1 blocker = 12.3; TRPV1 potentiator = 16.3

Following part.
SMILES	Six1-Eya2 blk	CtBP-E1A inh	TRPML1 agonist	D2 PAM	TRPML1 blocker	TRPV1 potentiator
Cc1ccc(C2=NCCn3nc4cc([N+](=O)[O-])ccc4c32)cc1	2.4	-2.4	0.1	-1.4	6.6	?
O=C(O)CC/C(=C\c1ccc(Cl)c([N+](=O)[O-])c1)c1nc2ccccc2s1	0.0	5.4	0.7	9.6	4.3	-18.0
Cn1ccc2c(N3CCCCCCC3)cc3c(c21)C1CCC3O1 (stereo not given)	?	?	-0.5	9.7	.	.
CCOc1nc(NCCO)nc(NCCC2=CCCCC2)n1	-0.4	6.2	-1.5	-5.1	-2.8	-17.5
CCCNc1nc(OCC(F)(F)F)nc(OCC(F)(F)F)n1	-3.6	-6.4	1.3	-4.6	9.7	-1.6
Nc1ccc2c(c1)C(=O)Cc1ccccc1S2	2.9	13.6	-0.4	-3.0	0.7	6.1
O=C(O)COn1c(-c2ccc(Cl)cc2)nc2ccc(Cl)cc21	3.1	5.2	1.7	-8.8	-16.3	3.2
CC(=O)Nc1ccc(CN(C)c2c(C)nc3ccc(C(=O)NCCCn4ccnc4)cn23)cc1	2.5	-6.0	0.3	-20.8	10.5	.
CC(C)(C)n1nnnc1C(c1ccccc1)N1CCN(C(=O)C2CCCO2)CC1 (stereo not given)	-3.6	-1.7	-0.8	.	.	.
O=C(c1cccc(C(F)(F)F)c1)C1CCCN(Cc2cccn2-c2ccccn2)C1 (stereo not given)	-6.3	-3.0	-0.7	-23.8	5.4	0.0
Cc1ccc(C(=O)N2CCCCC2)cc1S(=O)(=O)N1CCOCC1	1.7	2.1	0.8	-6.1	1.8	-6.5
O=C(CCCc1ccccc1)NCc1cn2ccsc2n1	-0.9	-6.9	0.0	-7.4	-4.5	-1.4
CCOC(=O)c1c(C)[nH]c(C(=O)OCC(=O)N(C)CC(=O)Nc2ccccc2Cl)c1C	-10.1	14.6	-1.0	-3.4	8.0	5.7
O=C(Nc1ccc(Cl)cn1)C1COc2ccccc2O1 (stereo not given)	7.3	11.6	2.9	-7.8	-13.2	-19.1
Cn1ccc2c(-c3cccnc3)cc3c(c21)C1CCC3O1 (stereo not given)	4.0	-26.9	3.2	-12.0	-0.9	.
COc1cccc(-c2nnc(NC(=O)c3ccc(Cl)s3)o2)c1	-27.1	-2.9	1.7	-13.0	-2.4	17.5
O=C(COC(=O)c1cc(Br)ccc1O)NCC1CCCO1 (stereo not given)	1.9	-18.3	0.2	-17.3	-10.4	4.3
Cc1ccc(NC(=O)c2ccc3c(SCC(=O)O)c4c(nc3c2)CCCC4)c(Br)c1	-28.0	-22.4	0.4	-0.4	3.8	?
O=C(Cc1n[nH]c(=O)c2ccccc12)Nc1cccc(S(=O)(=O)N2CCCCCC2)c1	-0.6	.	0.6	-5.7	0.3	4.0
CSc1cccc(NC(N)=O)c1	5.3	4.0	0.2	-2.1	-14.9	.
CCNc1nc(NCC)nc(SCCOC(=O)Nc2ccccc2)n1	-4.2	-3.2	1.3	-14.8	-4.3	7.1
CC(C)(C)c1ccc(C(=O)NNC(=O)CCC(=O)Nc2ccccc2)cc1	11.5	7.1	0.9	-1.7	-12.1	4.0
O=C(c1cc(-c2ccccc2Cl)on1)N1CCN(C(=O)c2ccco2)CC1	3.3	7.6	-1.0	-17.7	1.7	-3.4
COc1ccc(/C=C\C(=O)O[C@@H]2C(O)C(O[C@@H]3OC(C)[C@H](O[C@@H]4OCC(O[C@H]5O[C@H](CO)[C@@H](O)C(O)C5O)C(O)C4O)C(O)C3O)[C@H](OC(=O)[C@]34CCC(C)(C)C[C@@H]3C3=CCC5[C@@]6(C)CC(O)C(O[C@@H]7OC(CO)C(O)[C@H](O)[C@H]7O)[C@@](C)(C(=O)O)C6CC[C@@]5(C)[C@]3(CO)CC4)O[C@H]2C)cc1 (stereo not given in full)	-6.1	3.9	?	-12.8	6.7	.
O=C(Nc1ccc(Cc2ccncc2)cc1)c1ccc(S(=O)(=O)N2CCOCC2)cc1	0.9	0.5	-0.6	6.9	38.5	-8.6
CCN(CC)C(=O)OCCc1cc2ccccc2c(=O)o1	5.5	6.8	0.5	-8.1	4.8	17.4
O=C(NCC(=O)N1CCN(S(=O)(=O)c2ccccc2)CC1)c1ccc2ccccc2c1	0.7	-1.1	-0.6	9.8	-7.4	2.1
CC(=O)Nc1cc(C(=O)OCc2cccc([N+](=O)[O-])c2)ccc1C	0.7	-2.6	2.4	-2.0	20.8	-4.1
O=C(NNC(=O)c1cccc(S(=O)(=O)Nc2ccccc2F)c1)c1ccncc1	5.9	4.2	-0.4	2.2	55.3	.
CN(CC(=O)NC1CCCCCC1)S(=O)(=O)c1ccc(Br)cc1	7.7	-2.1	1.1	-12.3	-29.8	-23.2
COc1ccc(-c2ocnc2C(=O)Nc2ccc3c(c2)CCC3)cc1	1.5	7.8	3.5	0.8	-11.1	0.4
Cc1c(O)c(C)c2c(c1O)C(=O)C[C@@H](c1ccccc1)O2	-0.8	-0.1	0.2	-1.8	-1.8	3.1
